H5N1 CPE – MDCK cell protection from H5N1 avian flu. inhibition, % at 50 µM. 96,000 compounds, 0.07% hits. cytopathic effect, luminescence, 72 h; stronger effect = higher value; no value below 0 was filed and about half of the inactive calls have no number; reference of the scale not given here; in the data active = inhibition above about 25%
* marks the source's active call; other numbers are inactive results; i = inactive. These rows are one share of the data. The share of hits here may be higher or lower than overall.

#	SMILES	H5N1 CPE
1	CCCc1nnc(NC(=O)C(C)N2C(=O)C3C4C=CC(C4)C3C2=O)s1 (stereo unspecified)	i
2	CCC(Oc1ccc2c(c1)C(=O)CC(C)(C)O2)C(=O)NCCN1CCCCCC1 (stereo unspecified)	i
3	CCCN(CCC)CCNS(=O)(=O)c1ccc2c(c1)oc(=O)n2C	0.4
4	CCN(CC)P(=O)(Oc1cccc(C)c1)N(CC)CC	i
5	CCOc1ccc(-n2cnnn2)cc1S(=O)(=O)NCc1ccccc1	3.8
6	O=C(NCc1cccnc1)c1cnc2sccn2c1=O	0.1
7	Cc1ccc(CCNC(=O)c2coc3nc4ccccc4nc23)cc1	0.2
8	CCOc1ccccc1NC(=O)c1cc(Cl)ccc1NC(=O)c1ccco1	i
9	COc1ccc(-c2oc3ccccc3c(=O)c2OC(=O)c2ccc(C)cc2)cc1	i
10	Cc1ccc2cc(CN(CCCO)S(=O)(=O)c3cccc4nsnc34)c(=O)[nH]c2c1	i
11	Cc1nn(Cc2cccc(F)c2)c(C)c1NC(=O)c1c([N+](=O)[O-])c(C)nn1C	0.2
12	COc1ccc(S(=O)(=O)NCc2cccs2)cc1	1.5
13	O=C(CCC1CCCCC1)Nc1c2c(nn1-c1ccc(F)cc1)CS(=O)(=O)C2	0.3
14	CC(/C=N/Nc1nc(N2CCCCC2)nc(N2CCCCC2)n1)=C\c1ccccc1	i
15	CCN(CC)S(=O)(=O)N1CCC(C(=O)NCCN2CCOCC2)CC1	0.5
16	COC(=O)Nc1ccc(S(=O)(=O)N2CCCCCC2)cc1	i
17	COc1ccc(NC(=S)NNC(=O)Cn2nc([N+](=O)[O-])cc2C)cc1	i
18	Cc1ccc(Nc2nc(-c3c(C)nc4ncccn34)cs2)cc1	i
19	COc1ccc(C2C(C(N)=O)=C(C)Nc3nc(-c4ccccc4OC)nn32)cc1OC (stereo unspecified)	i
20	Cc1nc2ccccn2c1C(=O)/C=C/c1ccc(F)cc1	10
21	COc1ccc(OC)c(NC(=O)CSc2ccccc2)c1	0.1
22	CC(C)N1CC(O)=C(c2nc3ccccc3c(=O)[nH]2)C1=N	0.8
23	CC(C)[C@@H]1N[C@]2(C(=O)Nc3ccccc32)[C@@H]2C(=O)N(c3cccc(C(F)(F)F)c3)C(=O)[C@@H]21	i
24	COc1ccc(OC)c(C(C)NC(=O)c2ccco2)c1 (stereo unspecified)	1.1
25	O=C(Nc1ccccc1SCC1CSc2nc3ccccc3c(=O)n21)c1ccccc1 (stereo unspecified)	11
26	COc1ccc(CCn2c(NCCCN3CCOCC3)nc3c2c(=O)[nH]c(=O)n3C)cc1	4.0
27	O=c1[nH]c2ccc(Cl)cc2c(-c2ccccc2)c1SC(=S)N1CCOCC1	7.7
28	Cn1c(=O)c2cc(S(=O)(=O)NCCC(=O)NCCc3ccc(Cl)cc3)ccc2n(C)c1=O	1.2
29	CC1CC(O)(Cc2ccccc2)C(C)CN1C (stereo unspecified)	i
30	CCNC(=S)N/N=C/c1ccc(OCCOc2ccccc2C)cc1	i
31	COC(=O)[C@@H](NC(=O)NCc1ccccc1Cl)C(C)C	i
32	COc1ccc(C)cc1S(=O)(=O)N1CCN(Cc2ccccc2)CC1	0.9
33	Cc1ccc2c(c1)CC1(CN2C)C(=O)NC(=O)N(CCC2=CCCCC2)C1=O (stereo unspecified)	i
34	O=C(O)CN=C(NS(=O)(=O)c1ccccc1)c1ccccc1	0.8
35	CCOC(=O)C1CCN(CC(=O)N2C(C)CCCC2C)CC1 (stereo unspecified)	i
36	O=C(CSc1nnc(-c2cccnc2)n1C1CCCCC1)NC1CCCCC1	1.3
37	COC(=O)C1CCN(S(=O)(=O)c2cn(C)c(=O)n(C)c2=O)CC1	2.5
38	O=C(NCC1CCCO1)C1CCN(C(=O)c2ccc(Br)cc2)CC1 (stereo unspecified)	0.7
39	CCCCC(=O)NC(Nc1cc(C)ccn1)(C(=O)OCC)C(F)(F)F (stereo unspecified)	0.5
40	COCCCNC(=O)COc1ccc(S(=O)(=O)Nc2ccccc2)cc1	i
41	O=C(c1cc(Cl)cc(Cl)c1)N1CCOCC1	i
42	COC(=O)C(C)NC(=O)C12CC3CC(CC(C3)C1)C2 (stereo unspecified)	i
43	Cc1ccccc1NC(=O)c1ccc(CN2CCC(Cc3ccccc3)CC2)cc1	i
44	COCCn1c(C)cc(C2=NNC(=Nc3ccc(OC)cc3)SC2)c1C	i
45	CCOC(=O)Oc1ccc2c(=O)c(Oc3cccc(C)c3)coc2c1	i
46	CNCC1(c2ccccc2)CCCC1	i
47	Cc1ccc(N(C(=O)Cn2nnc3ccccc32)C(C(=O)NC2CCCCC2)c2cn(C)nc2C)cc1 (stereo unspecified)	i
48	CSc1c(C#N)c(N)c(C#N)c2c1COC(C)(C)C2	3.0
49	CCCN1C2CCCC1CC(NC(=O)c1cc(OC)c(OC)c(OC)c1)C2 (stereo unspecified)	1.3
50	C/C(=N\S(=O)(=O)c1ccc(C)cc1)N1CCN(S(=O)(=O)c2ccccc2)C1C(C)C (stereo unspecified)	0.7
51	Cc1ccccc1NS(=O)(=O)c1cc(C(=O)NCc2ccco2)ccc1C	i
52	Cc1cc(=O)[nH]c(SCC(=O)Nc2ccc(Br)cn2)n1	0.1
53	Cc1cccn2c(=O)c3cc(C(=O)NC(C)C)c(=N)n(Cc4ccncc4)c3nc12	3.1
54	CCOC(=O)CN1CC23C=CC(O2)C(C(=O)Nc2ccc(C(C)=O)cc2)C3C1=O (stereo unspecified)	0.9
55	COc1cc(NC(=O)CN(c2cc(C)cc(C)c2)S(=O)(=O)c2c(C)noc2C)cc(OC)c1	i
56	COc1ccc(NC(=O)C2CCN(C(=O)NC3CCCCC3)CC2)c(OC)c1	0.9
57	N#Cc1sc2nc(-c3cccs3)cc(-c3ccccc3)c2c1N	i
58	S=C(NCc1ccco1)Nc1cccc(Cl)c1	1.2
59	Cc1cc(C(F)(F)F)n2nc(C(=O)O)c(Cl)c2n1	i
60	CCNC(=O)N(C(=O)NCC)n1c(C)nnc1C	0.8

(next part)
#	SMILES	H5N1 CPE
61	COC(=O)Cn1nc(-c2ccc(C)c(S(=O)(=O)N(C)C)c2)c2ccccc2c1=O	1.4
62	CC(C)C(NC(=O)COc1ccccc1)C(=O)O (stereo unspecified)	0.9
63	c1ccc(N2CCN(c3ccccc3)C2c2cccnc2)cc1	3.5
64	N#Cc1cc2cc3c(cc2nc1N1CCCCC1)OCCO3	1.5
65	Cc1cccc(OCC(=O)N2CCN(Cc3ccncc3)CC2)c1	1.3
66	Cc1ccc(C(=O)Nc2ccc3c(c2)nc2n3CCSC2)cc1	i
67	O=C(CSc1ccc2c(c1)OCCO2)Nc1ncc(Cl)cc1Cl	1.3
68	CSc1nc(-c2ccc(Cl)cc2)nn1C(=O)c1ccco1	0.5
69	c1ccc(-c2nc(NCc3cccnc3)c3oc4ccccc4c3n2)cc1	i
70	Clc1ccc2c(NCc3ccccn3)ncnc2c1	1.0
71	CC(C)C(NC(=O)OCc1ccccc1)C(=O)OCC(=O)NCc1ccco1 (stereo unspecified)	i
72	Cc1nc(SCC(=O)Nc2cc(C)on2)c2c(=O)n(C)c(=O)n(C)c2n1	2.3
73	CC(=O)c1c(NCc2ccccc2)nc(=O)n(-c2ccccc2)c1C	0.2
74	CCC(Sc1nc2cc3c(cc2c(=O)n1Cc1ccco1)OCO3)C(=O)Nc1ccccc1OC (stereo unspecified)	0.5
75	CCOC(=O)c1cnn(-c2cccc(Cl)c2)c1N	i
76	CCCc1c(O)nc(SCCN(CCC)CCC)[nH]c1=O	3.6
77	CCCCOCCCNC(=O)c1ccc2c(c1)OCO2	1.2
78	CCn1c(-c2ccco2)nc2ccccc21	2.7
79	O=C1CCNc2cc3ccccc3cc21	i
80	COc1cccc(C(=O)Cn2c(N3CCOCC3)nc3c2c(=O)n(C)c(=O)n3C)c1	2.4
81	O=C1CSC(c2cn(-c3ccccc3)nc2-c2ccc3c(c2)OCCO3)N1CCN1CCOCC1 (stereo unspecified)	i
82	Cc1c(C=NCCOCc2ccccc2)cnn1C	0.1
83	Cc1nc2ccccn2c1C(=O)NCc1cccnc1	i
84	CC(=O)Nc1ccc(NS(=O)(=O)c2cccc3ccccc23)cc1	1.3
85	Cc1nnc(OCc2nc3ccccc3n2C)c2ccccc12	1.0
86	Cc1ccc(-c2nnn(CC(=O)NCC3CC3)n2)o1	i
87	N#CCCSc1ncnc2c1oc1ccccc12	4.0
88	N=C1C(c2nc3ccccc3[nH]2)=C(O)CN1c1ccc(CC(=O)O)cc1	i
89	COc1cc(-c2nnc(SCC3(c4ccccc4)OCCO3)o2)cc(OC)c1OC	0.4
90	CCOc1ccccc1-n1c(O)c(C=NCCCN(CC)CC)c(=O)[nH]c1=O	i
91	CC[n+]1c(/C=C/Nc2ccccc2)sc2ccccc21	1.1
92	CN(C)/C=C1\N=C(c2ccc(Cl)cc2Cl)OC1=O	i
93	O=C(CCC(=O)OCC(=O)c1ccc(Br)cc1)Nc1ccc(Br)c2cccnc12	2.2
94	COC(=O)C1=C(N)Oc2cc(C)n(Cc3ccco3)c(=O)c2C1c1cccc(Cl)c1 (stereo unspecified)	0.0
95	CC(C)C[C@H](NC(=O)Nc1ccc(S(N)(=O)=O)cc1)C(=O)O	i
96	Cc1ccc(CNC(=O)CCCn2c(=O)c3ccccc3n(CC(=O)NC3CCCC3)c2=O)cc1	0.2
97	CC(C)N(Cc1nc(-c2ccc(Cl)cc2)no1)C(=O)CCCN1C(=O)c2ccccc2C1=O	1.9
98	CCOC(=O)CC(=O)CSc1nc2c(C)c(C)ccc2cc1C	i
99	Cc1cccc(Nc2nc(-c3ccccn3)cs2)n1	3.4
100	Cc1cc(/C=C(\C#N)C(=O)OCC(=O)NC(=O)NC(C)(C)C)c(C)n1CCC(C)C	i
101	COC(=O)C1=C(N)N(c2ccc(F)cc2)C2=C(C(=O)CCC2)C1c1ccc2c(c1)OCO2 (stereo unspecified)	0.5
102	O=C(COC(=O)Cc1ccccc1)Nc1ncc(Cl)cc1Cl	0.4
103	Cc1cccc(Oc2nc(-c3ccccc3)cc(C)c2S(C)(=O)=O)c1C	i
104	COc1cccc(NS(=O)(=O)c2ccc3c(c2)n(C)c(=O)c(=O)n3C)c1	3.9
105	Cc1ccc(C)c(N2CCN(C(=O)C3CCCCN3S(=O)(=O)c3ccc(F)cc3)CC2)c1 (stereo unspecified)	0.2
106	O=C(CC1(O)C(=O)Nc2ccccc21)c1ccc(-n2cccc2)cc1 (stereo unspecified)	2.6
107	C=CCn1c(N)c(C(=O)OCC(C)C)c2nc3ccccc3nc21	i
108	COC(=O)c1ccc(SC2CCCCC2)c([N+](=O)[O-])c1	i
109	CCOC(=O)c1c(NC(=O)CSc2nnc(Cc3ccccc3)o2)sc(C(C)=O)c1C	i
110	COC(=O)c1ccc(NC(=O)CN2C(=O)CSC2=O)cc1	i
111	Cc1[nH]nc(SCC(=O)N2CCC(C)CC2)c1[N+](=O)[O-]	i
112	C=CCSc1nc2c(c(=O)[nH]c(=O)n2C)n1Cc1ccc(C)cc1	2.1
113	Cn1cc(C(=O)NCCN2CCN(c3cccc(Cl)c3)CC2)c2c3ccccc3n(C)c2c1=O	2.2
114	Cn1c(=O)n(C)c2cc([N+](=O)[O-])c(N3CCN(C(=O)c4ccc(Cl)cc4)CC3)cc21	1.1
115	CCOC(=O)c1ccc(NC(=O)NC(C)C2CCCO2)cc1 (stereo unspecified)	1.3
116	COc1ccc(S(=O)(=O)N2CCCN(CC(=O)C(C)(C)C)CC2)cc1	0.8
117	O=C(O)c1ccccc1C(=O)NNc1ccc(Cl)cc1	i
118	COC(=O)c1cc(NC(=O)CN(c2ccc3c(c2)OCO3)S(C)(=O)=O)ccc1Cl	i
119	CC1CCN(C(=O)c2ccc(COc3ccccc3Cl)o2)CC1	2.4
120	COc1ccc(S(=O)(=O)N2CCN(C3CCN(Cc4ccccc4)CC3)CC2)cc1	i

Following part
#	SMILES	H5N1 CPE
121	COc1ccc(S(=O)(=O)N2CCCCCC2)cc1C(=O)OCc1c(C)noc1C	1.3
122	COC(=O)c1ccc(Nc2cc(C)nc(-c3ccccc3O)n2)cc1	0.2
123	CCOC(=O)C1CCN(C(=O)CSc2cc(=O)n(CC)c3ccccc23)CC1	0.8
124	CC1CCCC(NC(=O)C2CCN(S(=O)(=O)N3CCC4(CC3)OCCO4)CC2)C1C (stereo unspecified)	i
125	CCc1sc(C(=O)NC)cc1Br	1.8
126	OCc1ccccc1OCCOc1ccc(Cl)c2cccnc12	i
127	Cc1ccc2[nH]c(=O)c(C(c3nnnn3Cc3ccccc3)N3CCc4ccccc43)cc2c1 (stereo unspecified)	i
128	COC(=O)c1ccc(NC(=O)CSc2nncn2C)cc1	0.7
129	Cc1nnc2c(-c3ccccc3)nc3ccccc3n12	3.6
130	COc1ccc(OCC(=O)Nc2ccc(S(=O)(=O)Nc3cc(C)nc(C)n3)cc2)cc1	1.6
131	O=C(NCc1ccccc1)N1CCC(n2cnc3cc(F)ccc32)CC1	0.8
132	Cc1ccc(OCC(=O)N/N=C\c2ccco2)c(C)c1	i
133	CCCNC(=O)CCn1c(-c2ccc(C)cc2)cc(C(=O)OCC)c1C	i
134	CCSc1nnc(-c2ccccc2NC(=O)CC)c(=O)[nH]1	i
135	CCOC(=O)c1c(C)[nH]c2cc(Br)c(OC)cc12	0.5
136	CCSc1nnc(-c2cccnc2)n1-c1ccc(Cl)c(C)c1	0.1

High-throughput results from PubChem BioAssay.
